miR-21 reporter: raises the signal of a miR-21 reporter | HeLa miR-21 FLuc reporter, luciferase, 48 h | Potency, µM (series often up to 38.3 µM), inactives show at the top dose reporter change, positive = more light | 340,000 tested, under 10 active; active = well fitted rising curve with a large enough effect; inconclusive = small, poorly fitted or top-dose-only effect; inactive = no such curve, though single readings can be large or run the other way;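 also: % of control where 0% means no effect; miR-21 action dims this reporter so a rising signal means less miR-21 action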
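HeLa miR-21-FLuc reporter line, endogenous miR-21; 2000 cells/well in DMEM/10% FBS; compound titration up to ~40uM final, 48 h, 37 degree Celsius; luciferase detection reagent, 15 min lysis, CCD luminescence.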
GLA inh pH 4.5: blocks human alpha-galactosidase A at pH 4.5 | AID 1467 | 230,000 tested, under 10 active | activity change, negative = inhibition, % at 105 µM | purified enzyme, 4-MU-alpha-Gal fluorescence, pH 4.5 | P06280; inconclusive = small, poorly fitted or top-dose-only inhibition, or a rising curve; inactive = flat fitted curve, though single readings scatter; no compound was filed as active;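 also: 0% = full activity with enzyme and -100% = basal without enzyme; dose as in the result columns while the protocol names 77 µM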
Target sequence (P06280 whole entry, looked up): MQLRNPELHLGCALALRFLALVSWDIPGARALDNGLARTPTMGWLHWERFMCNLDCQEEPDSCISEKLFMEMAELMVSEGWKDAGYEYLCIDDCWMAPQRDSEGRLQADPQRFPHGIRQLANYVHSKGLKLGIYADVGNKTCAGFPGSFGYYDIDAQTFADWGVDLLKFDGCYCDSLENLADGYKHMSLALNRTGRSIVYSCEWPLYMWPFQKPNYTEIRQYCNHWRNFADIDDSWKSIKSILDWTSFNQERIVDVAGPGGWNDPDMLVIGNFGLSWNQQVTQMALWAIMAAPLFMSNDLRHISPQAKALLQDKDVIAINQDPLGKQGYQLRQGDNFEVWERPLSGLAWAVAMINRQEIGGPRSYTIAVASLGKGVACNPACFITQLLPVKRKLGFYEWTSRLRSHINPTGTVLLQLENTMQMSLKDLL
Rango-impB inh: Rango-importin beta binding inhibition; Q14974; Rango CFP/YFP FRET sensor + importin beta, 45 min; Potency, µM (series often up to 92.2 µM), inactives show top-dose inhibition of complex formation; hit rate 0.031% among 340,000; AID 540263; active = rising FRET ratio curve, often small or poorly fitted; inconclusive = mostly compound fluorescence or quenching in the first reads; inactive = flat curves in all reads;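 also: potency is read from the fitted curve at half-maximal effect; 0% = DMSO wells and 100% = buffer wells lacking importin beta; nearly all actives have a fitted effect of over 15% in size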
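Inhibition scored from the CFP 486 nm/YFP 530 nm FRET ratio 45 min after adding 0.125 microM importin beta to 50 nM Rango biosensor preincubated 5 min with compound (room temperature, PBS with DTT, Tween-20, BSA). No-importin wells as positive control.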
Rango release inh: inhibitors of RanGTP-induced Rango-importin beta complex dissociation; Biochemical FRET Rango-importin beta, RanGTP-induced dissociation; AID 540253; O95149+P62826; Potency, µM (doses to about 46.1 µM), without a hit: at the highest dose activity change, negative = inhibition; hit rate 0.071% among 340,000; active means falling FRET ratio curve, often poorly fitted, with flat reads before Ran was added; inconclusive means other falling curves, or compound fluorescence or quenching; inactive means flat or rising ratio curve;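 also: potency is read from the fitted curve at half-maximal effect; % of control where 0% means no effect; nearly all actives have a fitted effect of over 45% in size; -100% = wells without RanGTP and RCC1; the record marks most hits as doubtful in a second field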
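Rango/importin beta premix (0.1/0.25 uM final), PBS + 1 mM DTT + 0.02% Tween-20 + 0.1% BSA; cpd 5 min RT; FRET pre-read; + RanGTP-RCC1 (0.6 uM Ran, 2 mM GTP, 0.2 uM RCC1); 45 min RT; FRET post-read, ex 430, em 486/530 nm.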
* = called active by the depositor; ? = inconclusive; nt = no result given; & = joins results of further samples. Some of the compounds tested; count on the stated rates, not on these rows.

Below each SMILES: miR-21 reporter | GLA inh pH 4.5 | Rango-impB inh | Rango release inh
- CC1CCCC(NC(=O)Cc2ccc(Br)cc2)C1C (stereo not given)
  -6% | -9 | 0.1% | 17%
- COc1cccc(/C=N/NC(=O)Cn2nc(C)c([N+](=O)[O-])c2C)c1O
  16% | 6 | 0.4% | -11%
- CCOC(=O)c1ccc(NC(=O)CN2C(=O)C(=O)N(CC(C)C)C2=O)cc1
  -5% | 6 | 0.7% | -4%
- COc1ccccc1Cn1c(=S)[nH]c2cc(C(=O)N3CCCC3)ccc2c1=O
  3% | nt | 1.5% | 8%
- O=C(CSc1ccccc1)N1CCN(S(=O)(=O)c2ccccc2F)CC1
  2% | nt | -1.2% | -1%
- OCc1c[nH]c(=S)n1CCOc1cccc(C(F)(F)F)c1
  5% | nt | 0.3% | 5%
- O=C(Nc1ccc(N2CCCC2)c(Cl)c1)c1ccc(Br)o1
  -7% | 0 | -0.7% | 8%
- COCCn1c(SCc2ccccc2)nc2c1c(=O)[nH]c(=O)n2C
  -16% | nt | -2.4% | 12%
- COc1ccc(C(=O)NC2CC2)cc1OC1CCN(Cc2cc(C)c(C)cc2C)CC1
  1% | nt | -0.7% | -12%
- Cc1cc(C)nc(Nc2n[nH]c(COc3ccccc3)n2)n1
  -6% | 8 | -0.2% | 1%
- C=CCn1c(SCC(=O)Nc2ncc(Cc3cc(C(F)(F)F)ccc3Cl)s2)nnc1-c1ccncc1
  1% | 3 | 0.1% | -2%
- O=C(Nc1cnc2ccccc2c1)c1cccnc1
  -31% | -1 | -0.2% | 21%
- COc1ccc(C2Nc3ccccc3C(=O)N2c2ccccc2)cc1CN1CCOCC1 (stereo not given)
  -36% | 11 | 1.5% | -13%
- CCOc1ccccc1NC(=O)C(CC)Sc1nc2ccncc2[nH]1 (stereo not given)
  5%&19% | nt | 3.5% | -4%
- CCC1(CC)C(=O)NC(=O)NC1=S
  nt | nt | ? | -9%
- COc1cc(C2c3cc4c(cc3OC(N3CCOCC3)C2C)OCO4)cc(OC)c1OC(C)=O (stereo not given)
  nt | nt | -0.3% | 13%
- C=C(C)CSc1nc2ncccc2[nH]1
  -9% | 3 | -0.7% | -7%
- O=C(NCCc1ccco1)C(=O)NCC1OCCCN1S(=O)(=O)c1ccccc1 (stereo not given)
  -3% | nt | 0.3% | 1%
- O=C(COC(=O)c1nc(Cl)c(Cl)c(Cl)c1Cl)c1ccc[nH]1
  nt | nt | -2.3% | 25%
- Cc1cccc2c1Sc1ccccc1CC2=O
  -6% | -6 | -0.8% | -13%
- O=C(COc1ccc([N+](=O)[O-])cc1)Nc1ccc(S(=O)(=O)N2CCOCC2)cc1
  7% | nt | -1.1% | -1%
- O=C(O)CCc1nn2c3ccccc3n(CCO)c2nc1=O
  1% | 3 | -3.6% | -16%
- CCN1CCN(C(=S)NCc2ccc(C)cc2)CC1
  -4% | -8 | 0.2% | 0%
- Cn1c(CN2CCCC2)nc2cc(NS(=O)(=O)c3ccccc3)ccc21
  0% | -1 | 4.0% | 0%
- CC1=C(C)CC(C(=O)NCCCN2CCCC2=O)C(C(=O)O)C1 (stereo not given)
  0% | nt | -0.1% | -13%
- CN(C)CCCC(=O)c1ccc2c(c1)OCO2
  -2% | 13 | -0.1% | 13%
- O=C(CC1Sc2ccccc2NC1=O)NNc1ccc(F)cc1 (stereo not given)
  nt | nt | -2.5% | 0%
- COc1ccc(CCNC(=O)CSc2ccc(Br)cc2)cc1OC
  -6% | -9 | -1.4% | -1%
- Cc1ccc(C(=O)NCCc2nnc3c(C(F)(F)F)cc(Cl)cn23)o1
  0% | nt | 1.5% | -10%
- CCc1ccc(C(=O)COC(=O)CNC(=O)c2cccs2)cc1
  -9% | 3 | 0.2% | 1%
- COc1ccc(S(=O)(=O)Nc2ccccc2C)cc1C(=O)N1CCOCC1
  4% | 5 | -1.0% | 14%
- O=C(COc1ncnc2ccccc12)Nc1ccccc1[N+](=O)[O-]
  -7% | 4 | 0.1% | -8%
- COc1cccc(C(C(=O)NC2CCCC2)N(C(=O)c2ccco2)c2ccc(NC(C)=O)cc2)c1OC (stereo not given)
  -1% | nt | 0.9% | -2%
- CC1CCC2CCCCC2N1C(=O)c1cc([N+](=O)[O-])cc([N+](=O)[O-])c1 (stereo not given)
  2% | nt | -0.8% | -1%
- O=C(CCCN1C(=O)c2ccccc2C1=O)N1CCc2ccccc2C1
  -11% | 3 | 2.4% | -6%
- COc1ccc(C2CC(=O)Oc3c(C(CCN4CCN(c5ccccc5)CC4)c4ccc(N(C)C)cc4)c(OC)cc(OC)c32)cc1 (stereo not given)
  -2% | -4 | -1.1% | 0%
- Cc1ccccc1Oc1ncccc1C(=O)/C(C#N)=C/N(C)C
  1% | 2 | -2.4% | 1%
- CCOc1ccc(OCCOC(=O)CNC(=O)c2ccc(Cl)cc2Cl)cc1
  nt | nt | 0.1% | 16%
- C/C(=N\NC(=S)NC1CCCCC1)c1c(F)cccc1F
  3% | 3 | -0.6% | ?
- CNS(=O)(=O)c1ccc(N=Cc2c(C)[nH]n(-c3ccc(C)cc3C)c2=O)cc1
  -4% | -20 | -3.0% | 14%
- COc1ccc(-c2cn(CCO)nc2-c2ccc(OC)cc2)cc1
  -11% | nt | 0.4% | 1%
- O=C(NC1CCCc2ccccc21)c1cccc(S(=O)(=O)N2CCN(c3ccccc3)CC2)c1 (stereo not given)
  3% | 1 | 0.9% | -2%
- CCCn1c(SCc2cc(=O)oc3ccc4ccccc4c23)n[nH]c1=O
  -1% | 6 | ? | -20%
- N#CC1C(C#N)N2CCCN2C1c1ccc(Cl)cc1 (stereo not given)
  2% | 0 | 3.6% | -1%
- CCCCN1C(=O)c2ccc(C(=O)Nc3c(N)n(CCCC)c(=O)n(C)c3=O)cc2C1=O
  1% | 7 | -2.5% | -5%
- COc1ccc(NC(=S)NCc2ccco2)c(OC)c1
  -1% | 3 | 1.0% | 10%
- O=C(CCc1nc(-c2ccccc2F)no1)NC1CCCCCC1
  -10% | 5 | -0.6% | -16%
- CC(C)Cn1c(SCC(=O)Nc2ncccn2)nc2ccccc21
  3% | 8 | -3.1% | -10%
- CN=C(Nc1ccccc1)SC1CC(=O)N(c2cccc(OC)c2)C1=O (stereo not given)
  -6% | 2 | -0.2% | 5%
- CCOC(=O)C1=C(C)NC(C)=C(C(=O)OCC)C1C(=O)OCC(=O)c1ccc2c(c1)OCCO2
  -13% | 0 | -5.9% | -17%
- COc1ccc(C(=O)C2CCCN(C(=O)c3cc4nc(C)cc(C)n4n3)C2)cc1F (stereo not given)
  -31% | 1 | 3.1% | -4%
- Cn1c(-c2ccc(F)cc2)cnc1NCc1cccc([N+](=O)[O-])c1
  1% | nt | 0.8% | 3%
- Cn1c(=O)cc(OCC(=O)N2CCN(c3cccc(C(F)(F)F)c3)CC2)c2ccccc21
  -2% | 9 | -1.8% | -2%
- COc1ccccc1COCC(O)CN1CCN(S(=O)(=O)c2cccc(F)c2)CC1 (stereo not given)
  nt | nt | -1.6% | 0%
- O=C(NNC(=O)C1CC=CCC1)c1cccc(Br)c1 (stereo not given)
  nt | nt | -9.0% | ?
- Cc1nn(-c2ccccc2)c(N)c1C1(O)C(=O)N(C)c2ccccc21 (stereo not given)
  -9% | -9 | 7.0% | 10%
- O=C(NCCn1ccc2ccccc21)c1ccc2c(c1)OCO2
  -43% | -9 | ? | 8%
- Cc1csc2nc(CCNS(=O)(=O)c3ccc4c(c3)OCCO4)cn12
  0% | -2 | -2.3% | -13%
- COc1ccccc1C(=O)COC(=O)COc1cccc2c1OC(C)(C)C2
  -44% | nt | -0.5% | 8%
- COc1ccc(C(=O)NCCCCc2ccccc2)cc1
  nt | nt | 0.2% | 3%

Following part:
Below each SMILES: miR-21 reporter | GLA inh pH 4.5 | Rango-impB inh | Rango release inh
- CCOc1ccc(N2CC(C(=O)OCC(=O)NCc3ccccc3)CC2=O)cc1 (stereo not given)
  -1% | 9 | 4.3% | 1%
- Cc1cccc(OCc2n[nH]c(=S)o2)c1C
  -7% | 5 | ? | 1%
- Cn1c(=O)c2c(nc(OC3CCCCCC3)n2C)n(C)c1=O
  nt | nt | -1.4% | 5%
- CCc1ccccc1NC(=O)C1CCCN1S(=O)(=O)c1ccc2c(c1)n(C)c(=O)c(=O)n2C (stereo not given)
  -2% | nt | 5.1% | 24%
- COc1ccc2c(c1)c1ncn(CCCN3CCOCC3)c(=O)c1n2C
  -6% | ? | -0.2% | -6%
- CS(=O)(=O)c1ccccc1C(=O)N1CCN(Cc2ccccc2)CC1
  0% | 3 | 0.6% | -11%
- COc1ccc(S(=O)(=O)NCC2CCCN(C(=O)CCC(F)(F)F)C2)cc1 (stereo not given)
  2% | nt | 0.2% | 3%
- COc1cc(OC)cc(C(=O)OCn2nnc3ccccc3c2=O)c1
  -9% | 2 | 4.2% | 0%
- Cc1nc(NC(=O)c2cccnc2)ccc1Br
  -38% | 0 | 5.2% | -9%
- O=C(CCCn1c(SCC(=O)c2ccc(O)c(O)c2)nc2ccccc2c1=O)NCC1CCCO1 (stereo not given)
  0% | 1 | -1.8% | 6%
- Cc1ccc2cc(CCNC(=O)c3c(-c4ccccc4Cl)noc3C)c(=O)[nH]c2c1
  0% | 4 | -0.1% | -11%
- CC(C)(C)c1ccc(C(=O)NCCc2ccccc2)cc1
  -28% | nt | -2.8% | 1%
- O=c1[nH]c(N/N=C\c2ccc(F)cc2)nc2ccccc12
  -24% | 8 | ? | ?
- Cc1nc2c(S(=O)(=O)c3ccccc3)cnn2c(C)c1C
  -3% | -2 | -0.9% | -20%
- Cc1ccc(C(=O)CN(C(=O)c2ccc(Cl)cc2)N2C(=O)c3ccccc3C2=O)cc1
  -1% | 3 | 0.5% | -15%
- CNC(=O)c1ccccc1S(=O)c1ccccc1COC(C)=O (stereo not given)
  -2% | 3 | 3.2% | 8%
- CCS(=O)(=O)NCCc1cc2c(OC)ccc(OC)c2[nH]c1=O
  -8% | -5 | 3.8% | 14%
- CC(=O)Nc1ccc(OS(=O)(=O)c2cc(Cl)ccc2C)cc1
  -10% | 0 | -2.4% | 24%
- c1ccc(-c2cnc(-c3ccccn3)nn2)cc1
  nt | nt | -0.6% | 5%
- CC(=O)c1ccc(-n2nncc2C)cc1
  0% | -5 | -3.8% | 2%
- O=C(NC(Nc1nc2ccc([N+](=O)[O-])cc2s1)(C(F)(F)F)C(F)(F)F)c1ccccc1
  ? | 1 | ? | ?
- Cc1ccc(CSc2nc3ccsc3c(=O)n2Cc2ccccn2)cc1
  -23% | 3 | ? | 1%
- COc1ccccc1Nc1nc(-c2cccc(N3C(=O)c4ccccc4C3=O)c2)cs1
  -1% | -4 | -2.1% | 8%
- CC(C)c1ccccc1NC(=S)N(C)C
  6% | 0 | 7.3% | 27%
- O=C(CCCN1CCC(C(=O)c2ccc(F)cc2)CC1)c1ccc(F)cc1
  3% | nt | -4.0% | 0%
- COc1cccc(CN2CC(C(=O)N(C)C3CCOCC3)CCC2=O)c1 (stereo not given)
  -2% | nt | -3.1% | -7%
- CC(=O)Nc1ccc(NC(=O)c2cc(=O)c3ccccc3o2)cc1
  7%&11% | nt | -0.8% | 2%
- Cc1cc(C(F)(F)F)nn1CC(=O)NNC(=S)Nc1ccc(F)cc1
  0% | -1 | -0.5% | 4%
- O=C(COC(=O)c1ccc([N+](=O)[O-])cc1Cl)NC(=O)c1ccccc1
  nt | nt | -6.4% | -14%
- CCOc1ccccc1N(C)S(=O)(=O)c1ccc2[nH]cc(C(=O)N(CCOC)CCOC)c(=O)c2c1
  0% | nt | 0.0% | -16%
- Cc1cc(C)c(NC(=O)c2cnn(C)c2)c(C)c1
  -3% | -2 | -8.1% | 1%
- c1cnn(Cc2cnc(N3CCOCC3)s2)c1
  -2% | 8 | -0.1% | 7%
- CC(C)Cn1c(=O)c(C(=O)NCc2ccc3c(c2)OCO3)c(O)c2ccccc21
  1% | nt | -1.8% | -11%
- COc1ccc(NC(=O)[C@@H]2CC=C[C@@H]3CCN(Cc4ccccc4)C(=O)[C@@H]32)cc1
  nt | nt | 0.4% | -22%
- c1ccc(COc2cccc(CN3CCCCC3)c2)cc1
  -7% | nt | 7.7% | 16%

High-throughput results: PubChem BioAssay, National Center for Advancing Translational Sciences (NCATS)
